MARV entry inh = blocks Marburg virus binding to or entry into cells | Marburg virus pseudotyped entry inhibition, cell reporter; control for the full effect not named in the record; about a third of the inactives were read at about 46 µM | Potency, µM (highest dose often 37.8 µM), without a hit: at the top dose activity change, negative = inhibition, actives largely listed as inhibitors | hit rate 1.8% among 300,000 | AID 540276; active = well fitted inhibition curve with a large enough effect; inconclusive = small, poorly fitted or top-dose-only effect, or effect the other way; inactive = flat fitted curve, though single readings scatter; tested in HEK293 cells; about a fifth of its hits are not listed in these tables; further: on the % scale 0 is the no-effect control and ±100 the full control effect; luciferase read-out
LASV entry inh = Lassa virus entry inhibition; Lassa virus pseudotype entry inhibition, cell reporter; control for the full effect not named in the record; Potency, µM (top dose mostly 37.9 µM), inactives show top-dose activity change, negative = inhibition, actives largely listed as inhibitors; hit rate 1.2% among 300,000; AID 540256; active means well fitted inhibition curve with a large enough effect; inconclusive means small, poorly fitted or top-dose-only effect, or effect the other way; inactive means flat fitted curve, though single readings scatter; tested in HEK293 cells; further: on the % scale 0 is the no-effect control and ±100 the full control effect; nearly all actives have a fitted effect of over 50% in size; luciferase read-out
NS1 function inh = inhibitors of influenza NS1 protein function; S. cerevisiae slowed by influenza A NS1, growth recovery by OD600; Potency, µM (titrated, usually from 46.1 µM), for the others: at the highest dose activity, positive = more growth; hit rate 0.4% among 270,000; active means well fitted rising curve with a large enough effect; inconclusive means small, poorly fitted or top-dose-only effect; inactive means no such curve, though single readings can be large or run the other way; further: nearly all actives have a fitted effect of over 50% in size
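Growth recovery, yeast-based: influenza A NS1 expressed in S. cerevisiae causes slow growth, and suppressors are detected by OD600. The parent strain without NS1 is used as positive control.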
Cruzain inh noDet = cruzain (T. cruzi) inhibition without detergent; P25779; purified cruzain, Z-FR-AMC fluorescence, no detergent; Potency, µM, without a hit: max response, negative = inhibition, actives largely listed as inhibitors; hit rate 2.3% among 200,000; AID 1476;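 further: plate controls were enzyme without inhibitor for no effect and buffer without enzyme for full effect; nearly all actives have a fitted effect of over 40% in size; top concentration of the series not given in the record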
Target sequence (P25779 123-467 limits assumed): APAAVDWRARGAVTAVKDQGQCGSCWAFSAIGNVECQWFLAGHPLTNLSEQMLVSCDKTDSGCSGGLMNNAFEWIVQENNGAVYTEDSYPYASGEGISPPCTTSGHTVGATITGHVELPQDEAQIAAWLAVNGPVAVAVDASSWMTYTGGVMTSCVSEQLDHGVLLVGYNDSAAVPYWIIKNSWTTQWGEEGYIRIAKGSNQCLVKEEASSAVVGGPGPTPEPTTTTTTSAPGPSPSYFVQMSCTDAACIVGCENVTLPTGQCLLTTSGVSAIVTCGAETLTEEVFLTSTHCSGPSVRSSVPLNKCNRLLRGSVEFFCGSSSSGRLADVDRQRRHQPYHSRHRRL
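Detergent-free condition (0.00005% Triton X-100) in acetate buffer pH 5.5 with DTT. 1.5 nM enzyme and compound were pre-mixed 15 min, then 2 uM Z-FR-AMC substrate added; reaction progress from fluorescence change between first and third reads (60 s).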
SARS PLP yeast = inhibitors of SARS-CoV papain-like protease in yeast. hit rate 0.19% among 330,000. S. cerevisiae expressing SARS-CoV PLpro, growth rescue; control for the full effect not named in the record. Potency, µM (titrated, usually from 32.9 µM), inactives show at the top dose activity, positive = growth rescue; active means well fitted rising curve with a large enough effect; inconclusive means small, poorly fitted or top-dose-only effect; inactive means no such curve, though single readings can be large or run the other way; further: 0% is about no effect; nearly all actives have a fitted effect of over 55% in size; growth read by luminescence after 48 h
2A StopGo = FMDV 2A StopGo reporter, luciferase signal; human cells with a luciferase reporter of 2A StopGo recoding; control for the full effect not named in the record; Potency, µM (series often up to 57.9 µM), for inactives: top-dose signal change, negative = less light; hit rate 1.2% among 410,000; AID 1159524; active = well fitted falling curve with a large enough effect; inconclusive = small, poorly fitted or top-dose-only effect; inactive = no such curve, though single readings can be large or run the other way; tested in HEK293T cells; further: on the % scale 0 is the no-effect control and ±100 the full control effect; nearly all actives have a fitted effect of over 45% in size; luciferase light after 4 h
RE007 growth inh = less growth of the S. pombe RE007 Vpr strain. Potency, µM (series often up to 92.2 µM), for inactives: top-dose activity change, negative = less growth. AID 651644. S. pombe RE007 Vpr strain, BacTiter-Glo ATP luminescence, 24 h; control for the full effect not named in the record. hit rate 0.21% among 360,000; active = well fitted falling curve with a large enough effect; inconclusive = small, poorly fitted or top-dose-only effect; inactive = no such curve, though single readings can be large or run the other way;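 further: on the % scale 0 is the no-effect control and ±100 the full control effect; nearly all actives have a fitted effect of over 50% in size; the assay follows cell death caused by Vpr and the record does not say whether a fall means rescue or toxicity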
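Fission yeast RE007 carrying one integrated HIV-1 vpr copy, seeded at OD 0.01 in PMG+AL medium with 23 nL pinned compound. Grown 24 h at 30 degrees; viability read by BacTiter-Glo luminescence after 5 min.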
Cruzain Triton = blocks cruzain activity in presence of Triton detergent; AID 1478; purified cruzain, Z-FR-AMC fluorescence, 0.01% Triton; hit rate 0.43% among 200,000; Potency, µM, for the others: max response, negative = inhibition, actives largely listed as inhibitors; P25779;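 further: plate controls were neutral wells for no effect and buffer without enzyme for full effect; nearly all actives have a fitted effect of over 40% in size; top concentration of the series not given in the record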
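Enzyme 1.5 nM, Z-FR-AMC 2 uM, NaOAc 100 mM pH 5.5, DTT 5 mM, Triton X-100 0.01%; 15 min RT compound preincubation; kinetic ex360/em450, 60 s delta.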
* hit, by the source's call; ? = inconclusive; . = not tested or not shown; & = joins results of further samples; [ ] = another dose, or the depositor's remark. Unless noted, the call rests on the fitted dose curve; in most records, active means well fitted curve in the direction sought with a large enough effect; inconclusive means small, poorly fitted or top-dose-only effect, or another doubt; inactive means no such curve, though single readings can be large; an effect the other way counts as inactive or inconclusive. Potency means the concentration at half of the fitted maximal effect.

Compound,Cruzain inh noDet,NS1 function inh,2A StopGo,MARV entry inh,SARS PLP yeast,Cruzain Triton,LASV entry inh,RE007 growth inh
COc1cccc(OC)c1C(=O)Nc1ccc2c(c1)CCCN2S(=O)(=O)c1ccc(C)cc1,?,-1.5%,-12.8%&-0.7%,.,-1.0%,-3.4%,7.5%[46.1 µM],6.2%
Cc1cc(C(=O)CN2CCC(C)CC2)c(C)n1-c1ccc(F)cc1,-1.9%,0.0%,20.6%,?,14.5%,0.5%,-23.0%,-13.5%
COc1cccc(CC(=O)OCC(=O)NCc2ccc3c(c2)OCO3)c1,.,.,11.0%,12.0%[46.1 µM],8.8%,.,0.5%[46.1 µM],10.1%
CCCCNC(=O)c1onc(CSc2ccccc2F)c1C(=O)O,-5.2%,1.5%,-1.9%,.,0.5%,-0.2%,.,2.9%
CC(C)CCn1c2ccccc2c2cc(CC(N)=O)ccc21,.,-0.2%,-18.8%,?,-0.3%,.,12.3%[46.1 µM],18.8%
O=c1c2[nH]cnc2n(-c2cccc(F)c2)c(=O)n1Cc1ccccc1,.,0.2%,2.3%,-2.5%,1.7%,.,.,0.2%
CC(=O)c1ccc(N(C(=O)c2ccco2)C(C(=O)NC2CCCC2)c2cccs2)cc1 (stereo not given),.,6.3%,31.5%[activator],-6.0%[46.1 µM],1.3%,.,.,-29.3%
COC(=O)/C(C#N)=C/c1c[nH]c2ccccc12,.,.,28.0%,?,-11.4%,.,13.0%[46.1 µM],-13.7%
CCCCCNC(=O)C1CC=CCC1C(=O)O (stereo not given),-3.6%,18.7%,-4.3%,10.5%,-3.8%,-1.0%,4.5%,20.3%
O=C(Nc1ccc2c(c1)oc1ccccc12)N1CCOCC1,2.7%,-144.8%,58.7%[activator],2.0%,-14.8%,-2.9%,?,0.9%
Cc1cccc(C)c1NC(=O)Cc1cccs1,.,8.2%,12.0%,-4.4%,-1.5%,.,11.0%,2.0%
O=C(C[N+]12CCC(CC1)C(C(O)(c1ccccc1)c1ccccc1)C2)c1ccc(Br)cc1 (stereo not given),.,7.4%,-5.8%,.,0.2%,.,.,16.6%
Cc1cccc(-c2nc(-c3ccncc3)no2)c1,.,-25.1%,33.7%[activator],?,-9.6%,.,10µM*,-15.9%
Nc1ccc(C(=O)c2ccccc2C(=O)O)cc1Cl,14.0%,2.8%,-1.4%,14.7%,7.0%,-1.3%,0.4%,4.0%
COc1cc2c(cc1NC(=O)COc1cc(C)cc(C)c1)oc1ccccc12,5.4%,.,-29.4%,-12.4%[46.1 µM],.,-0.2%,-0.4%[46.1 µM],.
COc1ccc(CCN(C)C(=O)c2oc3ccccc3c2C)cc1OC,.,.,-10.6%,?,3.5%,.,-1.5%,-16.1%
CCOC(=O)/C=C1\NC(C)(C)Cc2cc(OC)c(O)cc21,10.4%,?,.,8.0%,3.9%,-4.2%,2.3%,-0.7%
Cc1ccc(-n2c(SCC(=O)NCc3ccco3)nc3nc4c(cc3c2=O)COC(C)(C)C4)cc1,?,14.1%,-2.4%,-4.0%&-4.0%&-4.0%,11.5%,-1.6%,9.2%,2.9%
CCC(=O)Nc1ccc(Cl)c(NC(=O)c2ccc(Br)o2)c1,4.1%,-52.7%,-11.0%,-14.3%,-15.1%,-1.7%,-3.5%,-17.3%
O=C(CN1C(=O)C2CC=C(Cl)CC2C1=O)N1CCOCC1 (stereo not given),4.5%,8.8%,-22.9%,-12.7%,-5.2%,-0.7%,?,21.7%

(cont.)
Compound,Cruzain inh noDet,NS1 function inh,2A StopGo,MARV entry inh,SARS PLP yeast,Cruzain Triton,LASV entry inh,RE007 growth inh
O=C(O)c1cccc(S(=O)(=O)N(Cc2ccccc2)c2ccc(Cl)cc2)c1,.,-3.3%,-9.8%,?,2.2%,.,13.0%[46.1 µM],-12.4%
COC(=O)c1ccc(COc2ccc(C)c(C)c2)o1,.,-8.9%,40.5%[activator],.,-0.9%,.,.,-16.8%
Nc1nn2c(C(F)(F)F)cc(=O)[nH]c2c1N=Nc1cccc(F)c1,.,.,-23.8%,-0.4%[46.1 µM],4.7%,.,15.7%[46.1 µM],-3.7%
COc1cccc(C(=O)NC2CCNCC2)c1,.,14.2%,-21.8%,.,-3.7%,.,.,12.5%
O=C(Cc1ccccc1)Nc1ncccc1Cl,.,.,-2.8%,1.6%[46.1 µM],.,.,18.8%,-1.4%
C=C(C)CSc1nnc([C@@H](N)Cc2ccccc2)o1,.,2.5%,43.7%[activator],16.5%,-0.6%,.,37.2%,-0.7%
Cc1ccc(N=C2SCCCN2C(=O)C2=COCCO2)cc1Cl,.,.,-9.0%,7.0%,.,.,-4.5%[46.1 µM],22.8%
COc1ccc(Br)cc1/C=N/n1c(C)nc2ccccc2c1=O,.,-1.2%,?,.,1.6%,.,.,-2.0%
CC(C)COc1ccc(C(=O)N2CCCCC2CCN2CCOCC2)cc1 (stereo not given),-22.4%,.,-3.1%,-2.7%[46.1 µM],.,-2.4%,-6.7%[46.1 µM],.
Cc1ccccc1OCc1nc(-c2ccc(NC(=O)c3cccs3)cc2)no1,-14.5%,-7.1%,-10.2%,?,-15.2%,-4.0%,?,-11.4%
O=C(N/N=C/c1cccnc1)c1ccc(F)cc1,.,4.5%,48.1%[activator],?,-2.0%,.,?,-7.6%
CCC(C)N(C(=O)CN1C(=O)NC2(CCc3ccccc32)C1=O)C1CCS(=O)(=O)C1 (stereo not given),.,.,-16.1%,-4.1%,-1.9%,.,3.7%,11.6%
O=C(O)C1CCC(c2ccc(-c3ccccc3)cc2)CC1 (stereo not given),.,-72.7%,5.8%,18.5%&18.5%[46.1 µM],-6.7%,.,1.6%[46.1 µM],6.3%
COC(=O)C1=CN(C2CC2)C=C(C(=O)OC)C1c1ccc(C(F)(F)F)cc1,.,5.4%,-13.5%,-14.2%[46.1 µM],0.0%,.,-6.1%,9.9%
COc1ccccc1CCC(=O)OCc1csc(CC(=O)Nc2ccccc2C)n1,.,-39.7%,2.9%,.,-0.6%,.,.,18.3%
CCN(CC)S(=O)(=O)c1ccc(NC(=O)C2CCCO2)cc1 (stereo not given),-4.0%,0.9%,?,?,-0.9%,5.4%,-2.4%,0.3%
Cc1cc(C)c(C)c(S(=O)(=O)N2CCN(C(=O)c3ccco3)CC2)c1C,.,.,?,-8.6%[46.1 µM],.,.,-29.8%,24.3%
CCCC/C=C/C(NC(=O)c1ccc(C(=O)OC)cc1)c1ccccc1 (stereo not given),-19.4%,.,-4.1%,.,.,-11.1%,.,-12.8%
CC(=O)Nc1cccc(C(=O)/C=C/c2ccc(C)cc2)c1,-0.3%,-17.0%,?,?,-55.3%,-8.9%,?,?
CC12CCC(=O)N1C(C(=O)Nc1nc3ccc(Cl)cc3s1)CS2 (stereo not given),.,.,-0.5%,17.1%[46.1 µM],-8.0%,.,4.7%,-5.8%

Remaining list, next part:
Compound,Cruzain inh noDet,NS1 function inh,2A StopGo,MARV entry inh,SARS PLP yeast,Cruzain Triton,LASV entry inh,RE007 growth inh
Cc1ccc(C(=O)c2cc([N+](=O)[O-])ccc2N2CCOCC2)cc1,-7.0%,-1.3%,-16.1%,?,-8.7%,-8.2%,?,-25.2%
Cc1ccc(NC(=O)CSc2nc(N)cc(N)n2)cc1S(=O)(=O)N1CCOCC1,.,3.0%,20.3%,-31.9%,0.1%,.,?,1.1%
CC1CN(C(=O)c2cc3c(s2)CCC3)CC(C)O1 (stereo not given),-6.8%,-2.7%,.,3.2%,4.7%,3.3%,0.8%,-4.1%
CC(C)Cc1cc(C(=O)NCCc2ccccc2)no1,9.9%,-8.2%,48.9%[activator],.,-3.4%,0.9%,.,-20.7%
COC(=O)C1=C(C)NC(=O)NC1c1ccc(OCC(=O)N2CCCCC2)cc1 (stereo not given),5.2%,9.9%,-23.1%,3.8%,3.0%,5.4%,2.6%,-1.7%
COC(=O)c1ccc(NC(=O)CCN2CCN(CCC(=O)Nc3ccc(C(=O)OC)cc3)CC2)cc1,-0.3%,5.4%,?,?,2.9%,-2.5%,-10.8%,-7.8%
O=S(=O)(c1ccccc1)N1CCN2CCCC2C1 (stereo not given),.,9.2%,-3.9%,6.0%,0.4%,.,-14.8%,-0.6%
CN(C)S(=O)(=O)c1ccc(NC(=O)c2ccc(Br)o2)cc1,-0.4%,-86.8%,13.9%,0.8%,3.1%,2.4%,?,4.7%
N#CC1=C(N)n2c(s/c(=C\c3ccco3)c2=O)=C(C#N)C1c1ccco1 (stereo not given),-24.8%,7.2%,-18.1%,?,-10.0%,-9.4%,-1.7%,-9.3%
Nc1[nH]c(=O)[nH]c(=O)c1N=Nc1ccccc1Cl,.,-1.8%,27.6%,.,-0.9%,.,.,-1.1%
CCc1cccc(C)c1NC(=O)CN1CCN(Cc2ccccc2Cl)S1(=O)=O,11.8%,.,-22.4%,.,.,-1.3%,19.5%[46.1 µM],.
CCOC(=O)Cc1csc(SCC(=O)NC(C)C23CC4CC(CC(C4)C2)C3)n1 (stereo not given),9.0%,-61.4%,-13.3%,2.0%,-17.8%,-0.8%,6.1%,8.5%
Cc1cc(C)nc(NC(=O)c2cccc(Br)c2)n1,.,-2.3%,3.5%,17.9%[46.1 µM],0.0%,.,?,10.1%
CCOC(=O)c1cc2n(c1/N=C/N(C)C)-c1ccccc1C2=O,?,-14.5%,.,?,11.7%,-3.0%,?,6.6%
Cc1nc(C(=O)N(C)C)nn1-c1cc(Cl)cc(Cl)c1,10.4%,-10.3%,23.0%,12.5%,-7.2%,12.2%,-22.4%,1.4%
Cc1ccccc1N1CCN(CCCN2C(=O)C3CCCCN3C2=O)CC1 (stereo not given),.,1.0%,-4.2%,3.7%,?,.,21.5%,-11.3%

Bioassay records (PubChem BioAssay)
